DUX4 inh: blocks DUX4-driven transcriptional activation. activity change, negative = inhibition, % (concentration not given with the values). AID 1224904. 37,000 tested, 0.8% active. 293T-iDUX4 ZSCAN4-Gaussia luciferase reporter, 24 h; stronger effect = lower value;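 active = -10% or lower and over 25 points stronger than a control reporter; inconclusive = -10% or lower with a smaller gap; inactive = above -10%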;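 also: 0% = median of neutral control wells and -100% = median of positive control wells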
DUX4 inh difference: recorded beside DUX4 inh, whose call it bears; Gaussia minus Italica difference, %; measured here: selective DUX4 reporter inhibition;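 worked out from the two reporters; negative = selective loss of the DUX4 reporter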
DUX4 inh control: also measured in DUX4 inh; calls as there; activity change, negative = inhibition, %; measured here: Italica tet-on control reporter;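 0 = neutral control and -100 = positive control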
An asterisk follows results filed as active; ? = inconclusive; · = not tested or not shown. Not all compounds are listed; count on the stated rates, not on these rows.

nr	SMILES	DUX4 inh	DUX4 inh difference	DUX4 inh control
1	CCCC(=O)Nc1ccc2c(c1)C(=O)N(C)C[C@@H](OC)[C@@H](C)CN(Cc1ccc(F)cc1)[C@H](C)CO2	-8	-12	3.7
2	O=C(c1ccccc1)N1CC(=O)N2[C@@H](CO)[C@H](c3ccc(/C=C/c4ccccc4)cc3)[C@@H]2C1	2	-3	5.0
3	CN(C)CC(=O)N1[C@@H]2c3ccc(-c4ccccc4)c(=O)n3C[C@H]1[C@H](CO)[C@H]2C(=O)N1CCCCC1	2	-3	4.7
4	O=C(c1cccnc1)N1CC(=O)N2[C@@H](CO)[C@H](c3ccc(/C=C/c4ccccc4)cc3)[C@@H]2C1	2	3	-1.1
5	COCC(=O)Nc1ccc2c(c1)[C@@H]1C[C@H](CC(=O)N3CCc4ccccc4C3)O[C@H](CO)[C@@H]1O2	3	-1	4.4
6	Cc1ccc(-c2ccc([C@@H]3[C@@H](CO)N4C(=O)CN(C(=O)c5ccncc5)C[C@@H]34)cc2)cc1	-6	2	-8.4
7	CN1[C@@H]2c3ccc(-c4ccc(F)cc4)c(=O)n3C[C@@H]2[C@@H](CO)[C@@H]1C(=O)Nc1ccccc1	-1	-5	3.6
8	CN(C)C(=O)[C@H]1[C@H](CO)[C@H]2Cn3c(ccc(C4=CCCC4)c3=O)[C@@H]1N2CC1CCCC1	-2	-5	3.1
9	C[C@H]1CN([C@@H](C)CO)C(=O)c2cc(/C=C/c3ccccc3)cnc2O[C@H]1CN(C)C(=O)C1CCOCC1	-1	-1	0.7
10	O=C(c1ccccn1)N1CC2(C1)[C@H](c1ccccc1)[C@@H](CO)N2C(=O)C1CC1	4	-3	6.8
11	COc1ccc2c3c([nH]c2c1)[C@@H](CO)N(S(=O)(=O)c1ccc(C)cc1)CC31CCN(Cc2nccs2)CC1	?	·	·
12	COc1ccc2c3c(n(C)c2c1)[C@@H](CO)N(CC1CC1)CC31CN(C(=O)CC2CC2)C1	15	-13	28
13	CN1c2ccc(-c3ccc(C#N)cc3)cc2[C@H]2[C@H](CCN2S(=O)(=O)c2ccc(F)cc2)[C@H]1CO	6	7	-0.7
14	CS(=O)(=O)Nc1ccc2c(c1)[C@@H]1C[C@@H](CC(=O)NCc3ccc(Oc4ccccc4)cc3)O[C@@H](CO)[C@@H]1O2	?	·	·
15	O=C(C1CCCCC1)N1CC2(C1)[C@H](c1ccccc1)[C@H](CO)N2CC1CCCC1	?	·	·

Quoted at random: two records from the list, in no set order.
nr	SMILES	DUX4 inh	DUX4 inh difference	DUX4 inh control
10	O=C(c1ccccn1)N1CC2(C1)[C@H](c1ccccc1)[C@@H](CO)N2C(=O)C1CC1	4	-3	6.8
11	COc1ccc2c3c([nH]c2c1)[C@@H](CO)N(S(=O)(=O)c1ccc(C)cc1)CC31CCN(Cc2nccs2)CC1	?	·	·

(further entries)
nr	SMILES	DUX4 inh	DUX4 inh difference	DUX4 inh control
16	O=C(CN1CCOCC1)N1CC[C@@H]2[C@H]1c1cc(-c3ccccc3)ccc1N[C@@H]2CO	6	-1	6.7
17	CCC(=O)N1CCC2(CC1)CN(Cc1ccc3c(c1)OCO3)[C@@H](CO)c1c2c2ccc(OC)cc2n1C	-8	-12	3.2
18	CCCNC(=O)N1[C@@H]2CN(C(=O)c3ccncc3)c3ccccc3[C@@H]2[C@@H]1CO	-4	-3	-1.4
19	C[C@@H]1CN([C@H](C)CO)C(=O)c2c(c3ccccc3n2C)-c2ccccc2CO[C@@H]1CN(C)C(=O)[C@H](Cc1ccccc1)N(C)C	?	·	·
20	O=C([C@@H]1[C@@H](CO)[C@@H]2Cn3c(ccc(-c4cccnc4)c3=O)[C@H]1N2Cc1ccncc1)N1CCOCC1	-6	-2	-3.7
21	COc1ccc(NC(=O)Nc2ccc3c(c2)[C@@H]2C[C@@H](CC(=O)O)O[C@H](CO)[C@@H]2O3)cc1	7	4	2.5
22	CCS(=O)(=O)N[C@H]1CC[C@H](CC(=O)Nc2ccc(-c3ccccc3)cc2)O[C@@H]1CO	2	2	-0.2
23	O=C(Cc1ccccc1)N1CC[C@@H]2[C@H](CO)Nc3ccc(Br)cc3[C@@H]21	5	2	2.5
24	C[C@@H]1CN([C@@H](C)CO)C(=O)c2cc(NC(=O)CCC(F)(F)F)ccc2O[C@@H](C)CCCCO[C@@H]1CN(C)S(=O)(=O)c1ccccc1	0	-3	2.8
25	COc1ccccc1-c1ccc2c(c1)O[C@@H](CN(C)C(=O)Nc1cccc(F)c1)[C@@H](C)CN([C@@H](C)CO)S2(=O)=O	-2	0	-1.5
26	O=C(Nc1cc(F)ccc1F)N[C@H]1CC[C@@H](CCn2cc(C3CCCCC3)nn2)O[C@H]1CO	-7	9	-16
27	CCC(=O)N1CC2(C1)[C@@H](c1ccc(-c3ccccc3C)cc1)[C@H](CO)N2C(=O)CC	2	4	-2.1
28	O=C(C[C@@H]1CC[C@@H]2[C@H](COC[C@@H](O)CN2C(=O)c2ccncc2)O1)NCc1cc(F)cc(F)c1	9	3	5.9
29	CO[C@H]1CN(C)C(=O)c2ccc(NC(=O)c3ccno3)cc2OC[C@@H](C)N(S(C)(=O)=O)C[C@H]1C	7	2	4.7
30	COc1ccc(-c2ccc([C@@H]3[C@H]4CNCC(=O)N4[C@H]3CO)cc2)cc1	7	-1	8.8

As entered above:
entry 18 – DUX4 inh control: -1.4
entry 24 – DUX4 inh: 0
entry 23 – DUX4 inh difference: 2

Carrying on.
nr	SMILES	DUX4 inh	DUX4 inh difference	DUX4 inh control
31	CC(C)NC(=O)Nc1cccc2c1O[C@@H](CN(C)C(=O)Nc1ccccc1)[C@H](C)CN([C@H](C)CO)C2=O	1	-7	7.5
32	CCCNC(=O)N[C@@H]1C=C[C@@H](CC(=O)N2CCN(C)CC2)O[C@H]1CO	6	4	2.5
33	CN1[C@@H]2c3ccc(-c4ccncc4)c(=O)n3C[C@H]1[C@H](CO)[C@H]2C(=O)Nc1nccs1	7	3	4.1
34	O=C(C[C@@H]1CC[C@H]2[C@@H](COC[C@@H](O)CN2CCc2ccccc2)O1)N1CCC(Cc2ccccc2)CC1	?	·	·
35	O=S(=O)(c1ccc(F)cc1)N1CCCCN2[C@H](CO)[C@H](c3ccc(C#CC4CC4)cc3)[C@@H]2C1	?	·	·
36	CC(=O)N(C)C[C@@H]1[C@@H](c2ccccc2)[C@H](CO)N1C(=O)C1CC1	1	-5	5.6
37	COCCNC(=O)C[C@@H]1C[C@H]2c3cc(NC(=O)C4CCC4)ccc3O[C@H]2[C@H](CO)O1	-3	0	-2.6
38	O=C(C[C@@H]1CC[C@H]2[C@@H](COC[C@@H](O)CN2Cc2cccc(Cl)c2)O1)N1CCCCC1	?	·	·
39	C[C@@H]1CC(=O)NCC/C=C\C[C@@H](c2cccc(Cl)c2)NC1=O	-2	0	-2.2
40	C[C@H](CO)N1C[C@H](C)[C@@H](CN(C)C(=O)Nc2cccc3ccccc23)Oc2ccc(N(C)C)cc2C1=O	0	-3	2.4
41	COc1ccc(S(=O)(=O)N2C[C@@H](O)COC[C@@H]3O[C@@H](CC(=O)N(C)C)CC[C@H]32)cc1	7	8	-1.0
42	CO[C@H]1CN(C)C(=O)c2ccc(NC(=O)Nc3cccc(F)c3)cc2OC[C@@H](C)N(C(=O)Nc2c(C)noc2C)C[C@@H]1C	-5	-8	2.1
43	COc1cccc(-c2ccc([C@H]3[C@H](CO)N4CCCCN(C(=O)c5ccc6c(c5)OCO6)C[C@@H]34)cc2)c1	?	·	·
44	CC(=O)N1[C@@H]2c3ccc(C4=CCCC4)c(=O)n3C[C@@H]2[C@@H](CO)[C@@H]1C(=O)Nc1ccccc1	2	4	-2.3
45	COc1ccccc1C(=O)Nc1ccc2c(c1)C(=O)N(C)[C@H]1CC[C@@H](CC(=O)NCc3ccc(Cl)c(Cl)c3)O[C@@H]1CO2	1	2	-0.6

Filtered by structure, those above with a Cl atom.
nr	SMILES	DUX4 inh	DUX4 inh difference	DUX4 inh control
38	O=C(C[C@@H]1CC[C@H]2[C@@H](COC[C@@H](O)CN2Cc2cccc(Cl)c2)O1)N1CCCCC1	?	·	·
39	C[C@@H]1CC(=O)NCC/C=C\C[C@@H](c2cccc(Cl)c2)NC1=O	-2	0	-2.2
45	COc1ccccc1C(=O)Nc1ccc2c(c1)C(=O)N(C)[C@H]1CC[C@@H](CC(=O)NCc3ccc(Cl)c(Cl)c3)O[C@@H]1CO2	1	2	-0.6

Next compounds.
nr	SMILES	DUX4 inh	DUX4 inh difference	DUX4 inh control
46	O=C(C[C@H]1CC[C@H]2[C@@H](COC[C@@H](O)CN2S(=O)(=O)c2cccc(Cl)c2)O1)Nc1ccc(-c2ccccc2)cc1	?	·	·
47	COc1ccc(NC(=O)N(C)C[C@@H]2OCc3ccccc3-c3ccccc3C(=O)N([C@@H](C)CO)C[C@H]2C)c(OC)c1	-5	0	-4.5
48	C[C@H]1CN([C@@H](C)CO)C(=O)CCCn2nncc2CO[C@@H]1CN(C)Cc1ccc(Cl)c(Cl)c1	-5	0	-5.8
49	CN1C(=O)c2cc(NC(=O)Cc3ccccc3)ccc2OC[C@@H]2O[C@H](CC(=O)NCC3CC3)CC[C@H]21	1	-4	4.2
50	CCCNC(=O)Nc1ccc2c(c1)OC[C@@H](C)N(CCC(F)(F)F)C[C@@H](C)[C@@H](OC)CN(C)C2=O	0	2	-1.5
51	Cn1cnc(CCNC(=O)[C@@H]2[C@@H](CO)[C@@H]3Cn4c(cccc4=O)[C@H]2N3C(=O)Nc2ccccc2)c1	0	3	-3.0
52	O=C(c1ccc(F)cc1)N1[C@@H]2CNc3ccccc3[C@@H]2[C@@H]1CO	-6	-3	-3.1
53	CCC(=O)N1[C@H](C(=O)NC2CCC2)[C@@H](CO)[C@@H]2Cn3c(cccc3=O)[C@@H]21	-1	-3	2.6
54	C[C@@H]1CCCCO[C@@H](CN(C)C(=O)Nc2ccc(C(F)(F)F)cc2)[C@H](C)CN([C@H](C)CO)C(=O)c2cc(NS(=O)(=O)c3cn(C)cn3)ccc2O1	4	3	1.3
55	O=C(NC1Cc2ccccc2C1)[C@@H]1[C@@H](CO)[C@@H]2Cn3c(ccc(C4=CCCCC4)c3=O)[C@H]1N2	4	4	0.6
56	C[C@@H]1CN([C@@H](C)CO)C(=O)CCCn2nncc2CO[C@@H]1CN(C)Cc1ccc(C(F)(F)F)cc1	?	·	·
57	C[C@@H]1CN([C@H](C)CO)C(=O)c2cc(N(C)C)ccc2O[C@@H](C)CCCCO[C@H]1CN(C)S(=O)(=O)c1cccs1	7	3	5.0
58	C[C@@H]1CN([C@@H](C)CO)C(=O)Cc2cc(NC(=O)CCN3CCOCC3)ccc2O[C@@H]1CN(C)C(=O)NC1CCCCC1	1	0	1.5
59	N#C[C@H]1[C@H](c2ccc(-c3ccc(F)cc3)cc2)[C@H](CO)N1c1nc(-c2ccccc2)cs1	2	4	-1.6
60	O=C(C[C@@H]1CC[C@H]2[C@@H](COC[C@@H](O)CN2C(=O)Nc2cc(Cl)cc(Cl)c2)O1)NCC1CC1	1	0	0.6
61	CO[C@H](CN(C)S(=O)(=O)c1ccc(C)cc1)[C@H](C)CN(C(=O)Nc1ccccc1F)[C@H](C)CO	-2	2	-4.3
62	CC=Cc1ccc2n(c1=O)C[C@H]1[C@H](CO)[C@@H](C(=O)NCC(F)(F)F)N(CC)[C@@H]21 (mixture of isomers)	2	1	1.1
63	CCCNC(=O)N1CC2(CN(C(=O)c3cccnc3)C2)c2c([nH]c3cc(OC)ccc23)[C@H]1CO	16	4	12
64	COc1ccc2c3c([nH]c2c1)[C@@H](CO)N(C(=O)c1ccccc1)CC31CCN(C(=O)Nc2cccc(F)c2)CC1	?	·	·
65	O=C(c1ccncc1)N1CC(=O)N2[C@H](CO)[C@H](c3ccc(C#CCC4CCCC4)cc3)[C@H]2C1	?	·	·
66	C[C@H]1CCCCO[C@H](CN(C)C(=O)Nc2cccc3ccccc23)[C@@H](C)CN([C@@H](C)CO)C(=O)c2cc(NC(=O)CCC(F)(F)F)ccc2O1	-3	-1	-1.8
67	CCc1cnc(N2[C@@H](C#N)[C@@H](c3ccccc3C3=CCCC3)[C@@H]2CO)s1	15	8	6.6
68	CO[C@H]1CN(C)C(=O)c2cc(NC(=O)Cc3ccccc3)ccc2OC[C@@H](C)NC[C@H]1C	5	0	5.0
69	C[C@@H]1CN([C@@H](C)CO)C(=O)CCCn2cc(nn2)CO[C@@H]1CN(C)Cc1ccc2c(c1)OCCN2C	3	4	-0.5
70	O=C(CC1CC1)Nc1ccc2c(c1)[C@H]1C[C@H](CC(=O)N3CCCCC3)O[C@H](CO)[C@H]1O2	0	2	-2.7
71	CCCNC(=O)[C@H]1[C@H](CO)[C@H]2Cn3c(ccc(C4=CCCCC4)c3=O)[C@@H]1N2	6	4	2.5
72	CN1CCN(C(=O)C[C@@H]2C[C@@H]3c4cc(NC(=O)c5ccc6c(c5)OCO6)ccc4O[C@@H]3[C@@H](CO)O2)CC1	-1	5	-5.9
73	CN1C(=O)c2cc(NC(=O)c3cccc(F)c3)ccc2OC[C@H]2O[C@@H](CC(=O)NC3CCC3)CC[C@H]21	2	-5	6.4
74	COc1ccc(NC(=O)Nc2ccc3c(c2)C(=O)N([C@H](C)CO)C[C@@H](C)[C@@H](CN(C)C(=O)NC2CCCCC2)OCCCC[C@@H](C)O3)cc1	0	-2	1.8
75	CC(=O)N1[C@H](CO)[C@@H](c2ccccc2)[C@H]1CN(C)S(=O)(=O)c1ccccc1	2	2	-0.2
76	COc1cc(CN2CC3(CN(C(=O)CN4CCOCC4)C3)c3c(n(C)c4cc(OC)ccc34)[C@@H]2CO)cc(OC)c1	21	25	-3.4
77	O=C(C[C@H]1CC[C@@H]2[C@H](COC[C@@H](O)CN2C(=O)C2CC2)O1)NCc1ccccc1Cl	6	9	-3.1
78	COc1cccc(NC(=O)N(C)C[C@@H]2OCc3cnnn3CCCC(=O)N([C@H](C)CO)C[C@@H]2C)c1	6	4	1.8
79	CC(=O)NC[C@H]1[C@@H](c2ccccc2)[C@@H](CO)N1C(=O)Cc1cccnc1	2	3	-1.2

Bioassay records (PubChem BioAssay)
